VDR inhibitor: blocks the human vitamin D receptor; VDR-SRC2-3 peptide fluorescence polarization, 2 h; AID 504847; 400,000 tested, 0.93% active; Potency, µM, without a hit: max response, negative = inhibition, usual class: inhibitors; active = well fitted inhibition curve with a large enough effect; inconclusive = small, poorly fitted or top-dose-only effect, or another doubt; inactive = no such curve, though single readings can be large or run the other way; note: series mostly up to about 120 µM
Target sequence (P11473 whole entry, looked up): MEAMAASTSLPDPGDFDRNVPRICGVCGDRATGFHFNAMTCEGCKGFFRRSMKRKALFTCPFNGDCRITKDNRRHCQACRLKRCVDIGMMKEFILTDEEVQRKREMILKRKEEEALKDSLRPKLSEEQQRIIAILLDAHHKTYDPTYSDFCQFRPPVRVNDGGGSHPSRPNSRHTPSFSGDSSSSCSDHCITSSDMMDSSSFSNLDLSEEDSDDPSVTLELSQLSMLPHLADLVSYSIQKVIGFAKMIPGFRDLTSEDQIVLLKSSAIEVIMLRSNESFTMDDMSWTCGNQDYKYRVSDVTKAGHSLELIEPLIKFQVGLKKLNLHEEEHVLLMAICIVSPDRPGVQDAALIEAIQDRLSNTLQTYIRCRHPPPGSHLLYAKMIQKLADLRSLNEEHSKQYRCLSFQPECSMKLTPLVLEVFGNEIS
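Compounds are added to VDR with labelled SRC2-3 coactivator peptide and held 2 h at room temperature. Inhibition of the VDR–peptide interaction is then read as a change in fluorescence polarization.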
* marks the source's active call; other numbers are inactive results; & = joins results of further samples. % is set by controls: 0 for no effect and ±100 for the full control effect; potency is the fitted concentration of half-maximal effect.

Cc1ccc(-c2cc(Cc3ccc(N(C)C)cc3)c(=O)[nH]n2)cc1 was read as VDR inhibitor -2.4%.
Screening COc1ccccc1NC(=O)C(C)OC(=O)Cc1ccsc1 (centres undefined) returned VDR inhibitor 8.4%.
Screening COc1ccc(OCC(=O)NCCc2ccc(S(N)(=O)=O)cc2)cc1 returned VDR inhibitor -0.8%.
`CN(C)S(=O)(=O)c1ccc(N2CCOCC2)c(C(=O)NCc2ccc3c(c2)OCO3)c1` gave VDR inhibitor -1.2%.
`CCOC(=O)c1ccc(N2N=C(C)/C(=C/C=C/c3ccco3)C2=O)cc1` gave VDR inhibitor -14.9%.
COc1ccccc1-c1nc(SCC(=O)NCc2ccc(C)cc2)c2c(=O)n(C)c(=O)n(C)c2n1 was read as VDR inhibitor 10.4%.
`COc1ccccc1NC(=O)COc1ccc(C(=O)NCc2ccccc2)cc1OC` gave VDR inhibitor -12.2%.
Cc1cc(S(=O)(=O)N2CCCc3ccccc32)ccc1-n1cnnn1 was read as VDR inhibitor 12.2%.
`CN(CC(=O)Nc1ccc2c(c1)OCO2)CC(=O)Nc1ccc(F)c(F)c1F` gave VDR inhibitor -14.1%.
Cc1ccc(/C=N/NC(=O)C(C)NC(=O)c2ccccc2)cc1 (centres undefined) was read as VDR inhibitor -10.6%.
`O=C1CC(c2ccc(F)cc2)CC(O)=C1C1NCCc2ccccc21` (centres undefined) gave VDR inhibitor 3.5%.
For CN(C(=O)CC1C(=O)NCCN1Cc1c(F)cccc1Cl)C1CCOCC1 (centres undefined) the results were VDR inhibitor -14.8%.
For CC1CCN(CCCOc2ccc(Br)cc2Cl)CC1 the results were VDR inhibitor -5.8%.
For CC(C)CCn1c(N2CCc3ccccc3C2)nc2c1c(=O)[nH]c(=O)n2C the results were VDR inhibitor -5.0%.
Cc1noc(C)c1C(=O)N1CCC2(CC1)CN(c1ncccn1)C2 was read as VDR inhibitor 0.7%.
Screening O=[N+]([O-])c1cccc(CSc2nnc3ccccn23)c1 returned VDR inhibitor -5.9%.
`S=c1[nH]nc(Cn2cnc3ccccc32)n1-c1ccccc1Cl` gave VDR inhibitor -8.6%.
`O=C(Cc1csc2nc(-c3ccccc3)cn12)NCc1ccc(F)cc1` gave VDR inhibitor 11.0%.
`CC(C)C(=O)NC(=S)Nc1sc2c(c1C(N)=O)CCCC2` gave VDR inhibitor inconclusive.
For O=[N+]([O-])c1ccc(Cl)c(S(=O)(=O)NCCc2ccccn2)c1 the results were VDR inhibitor 3.3%.

Nothing new here: an excerpt of the list.
`O=C1CC(c2ccc(F)cc2)CC(O)=C1C1NCCc2ccccc21` (centres undefined) gave VDR inhibitor 3.5%.
For CN(C(=O)CC1C(=O)NCCN1Cc1c(F)cccc1Cl)C1CCOCC1 (centres undefined) the results were VDR inhibitor -14.8%.

Following part.
For CC(C)Cc1nc2oc3c(NCc4cccnc4)ncnc3c2c2c1CCC2 the results were VDR inhibitor 8.1%.
For COc1ccc(N2C(=O)CC(Cc3ccccc3OC)C2=O)cc1 (centres undefined) the results were VDR inhibitor -2.7%.
O=c1cc(Nc2cccc(Br)c2)[nH]c(=O)[nH]1 was read as VDR inhibitor 15.3%.
`O=C1CCc2cc(S(=O)(=O)N3CCN(c4ccc(F)cc4)CC3)cc3c2N1CC3` gave VDR inhibitor -14.7%.
Screening Cc1c(Cl)cccc1NC(=S)NC(=O)CCN1C(=O)c2ccccc2C1=O returned VDR inhibitor -10.2%.
`CC(NC(=O)c1cc(=O)[nH]c2ccccc12)c1ccc(F)cc1F` (centres undefined) gave VDR inhibitor -3.3%.
`CCNc1nc(NCC)nc(N(C)N)n1` gave VDR inhibitor 0.2%.
`COc1ccc(SCCCn2c(=O)c3c(ncn3C)n(C)c2=O)cc1` gave VDR inhibitor -10.7%.
Screening Cc1ccc(C(=O)Nc2ccc(C(F)(F)F)n(C)c2=O)cc1 returned VDR inhibitor -3.2%.
For Cn1c(-c2ccc(F)cc2)cnc1SCC(=O)N1CCCc2ccccc21 the results were VDR inhibitor -21.0%.
Screening CCOc1ccc(OCC)c(NC(=O)Cn2cccc2)c1 returned VDR inhibitor 1.1%.
`CC(NC(=O)C(c1ccccc1)c1ccccc1)c1ccccc1` (centres undefined) gave VDR inhibitor -13.7%.
Screening CN(C)S(=O)(=O)c1ccc2c(c1)N(CC(=O)Nc1ccc(F)cc1)C(=O)CS2 returned VDR inhibitor 9.9%.
For CCCN(CCO)Cc1cccc(Br)c1 the results were VDR inhibitor -3.9%.
Screening Cn1c(SCc2nc(-c3ccc(Cl)cc3)no2)nnc1-c1ccco1 returned VDR inhibitor -6.6%.
For Cc1nnc(NC(=O)C(C)Sc2nncn2C)s1 (centres undefined) the results were VDR inhibitor -8.2%.
For CCN(CC)CCOC(=O)C1(c2ccccc2)CCOCC1 the results were VDR inhibitor -13.8%.
Screening Cc1ccccc1-n1nc2c(c1NC(=O)C(C)(C)C)CS(=O)(=O)C2 returned VDR inhibitor 6.6%.
Screening CCC(c1nnc(SCC(=O)Nc2ccc(S(N)(=O)=O)cc2)n1Cc1ccccc1)N(C)C (centres undefined) returned VDR inhibitor inconclusive.
For S=c1[nH]nc(-c2cc(-c3ccccc3)n[nH]2)n1/N=C/c1ccc(Cl)c(Cl)c1 the results were VDR inhibitor -7.9%.

Two compounds drawn at random from those above:
Screening Cc1c(Cl)cccc1NC(=S)NC(=O)CCN1C(=O)c2ccccc2C1=O returned VDR inhibitor -10.2%.
`CN(CC(=O)Nc1ccc2c(c1)OCO2)CC(=O)Nc1ccc(F)c(F)c1F` gave VDR inhibitor -14.1%.

Carrying on.
For S=C(Nc1cccnc1)Nc1ccccn1 the results were VDR inhibitor -3.9%.
For Cc1c(C(=O)OCC(C)C)[nH]c2c1C(=O)CC(c1ccco1)C2 (centres undefined) the results were VDR inhibitor -14.1%.
COc1ccccc1CNC(=O)c1ccccc1SCC(=O)NCc1ccco1 was read as VDR inhibitor -14.9%.
C/C(N)=C(/C#N)C(=O)CSc1nc2ccccc2c(=O)n1Cc1ccc(C)cc1 was read as VDR inhibitor 9.1%.
For CC(C)c1ccc(/C=N/n2nnnc2Nc2ccccc2)cc1 the results were VDR inhibitor 9.4%.
`COc1ccc2c(c1)[nH]c1c(=O)n(Cc3ccco3)cnc12` gave VDR inhibitor -1.2%.
`Cc1c(C2N3CC4(C)CN2CC(C)(C3)C4=O)c2ccccc2n1C` (centres undefined) gave VDR inhibitor 5.2%.
For CCOc1ccc(NC(=O)CCn2nc(C)c(S(=O)(=O)N3CCCCC3)c2C)cc1 the results were VDR inhibitor -11.1%&-2.2%.
`CCC(C)(C)NC(=O)CN(Cc1ccc(OC)cc1)C(=O)CCC(=O)Nc1nccs1` gave VDR inhibitor 12.3%.
`O=C(CSCc1ccc(Cl)cc1)Nc1ccc2c(c1)OCO2` gave VDR inhibitor 1.8%.
For CN(C)N1C(N)=C(C#N)C(c2cccc([N+](=O)[O-])c2)C2=C1CC(C)(C)CC2=O (centres undefined) the results were VDR inhibitor -6.3%.
Cc1cc2[nH]c(=O)c3ccccc3n2n1 was read as VDR inhibitor 4.2%.
CN(CC(=O)Nc1ccccc1Cl)C(=O)COC(=O)Cc1ccc(F)cc1 was read as VDR inhibitor 2.1%.
Cc1cccc(C)c1OCC(=O)N/N=C/c1ccncc1 was read as VDR inhibitor -15.3%.
`CN(C)c1ccc(/C=C2\C(=O)Nc3ccccc32)cc1` gave VDR inhibitor inconclusive.
Screening Cc1ccc(-n2nc3c(=O)n(C(C)C(=O)NCc4ccccc4C)nc(C)c3c2C)cc1 (centres undefined) returned VDR inhibitor 9.7%.
O=C(N1CCC(n2nc(-c3ccccc3)oc2=O)CC1)C1(c2ccccc2)CC1 was read as VDR inhibitor -10.4%.
For CCOCc1nc(C)c(Cl)c(NS(=O)(=O)c2ccc(N)cc2)n1 the results were VDR inhibitor 9.5%.
Screening C=CCn1c(SCC(=O)Nc2c(C)cccc2C)nnc1-c1ccncc1 returned VDR inhibitor 1.0%.
CS(=O)(=O)c1cccc(NC(=O)c2ccc(Cl)c(Cl)c2)c1 was read as VDR inhibitor -0.6%.
`COc1ccc(CNC(=O)C2CCCN(S(=O)(=O)c3cccc4nsnc34)C2)cc1` (centres undefined) gave VDR inhibitor -4.1%&-12.4%.
`COc1ccc2oc(C(=O)OCC(=O)NC(C)c3ccccc3)c(C)c2c1` (centres undefined) gave VDR inhibitor 16.9%.
For Nc1cc(-c2ccc(Br)cc2)nn1S(=O)(=O)c1ccccc1 the results were VDR inhibitor -6.7%.
Screening Cc1ccc(-c2[nH]ncc2C(=O)c2ccccc2C)c(O)c1 returned VDR inhibitor 18.9%.
For Cc1ccc(C)c(S(=O)(=O)n2nc(C)c(S(=O)(=O)N3CCCCCC3)c2C)c1 the results were VDR inhibitor -3.1%.
Screening Cc1nn(C(=O)c2cc3sccc3[nH]2)c(C)c1C returned VDR inhibitor 0.2%.
`Cc1ccc(C)c(NC(=O)c2ccc3nc(CCc4ccccc4)oc3c2)c1` gave VDR inhibitor 4.1%.
`CCN1CCN(C(=O)c2ccccc2N(Cc2ccccc2)S(=O)(=O)c2ccc(OC)cc2)CC1` gave VDR inhibitor 14.2%.
For COc1ccc(CCNC(=O)CN(c2ccccc2)S(=O)(=O)N(C)C)cc1OC the results were VDR inhibitor -13.4%.
COc1ccc(-c2csc(N(CCCN(C)C)C(=O)c3cccs3)n2)cc1 was read as VDR inhibitor 10.6%.
For CCn1ncc(CN2CCN(Cc3ccc(OC)c(C)c3C)C(CCO)C2)c1C (centres undefined) the results were VDR inhibitor -12.4%.
Screening O=C(CN1C(=O)C2C3C=CC(C3)C2C1=O)NCCC1=CCCCC1 (centres undefined) returned VDR inhibitor -0.2%.
CCOC(=O)C1=C(c2ccccc2)OC(N)=C(C#N)C1c1ccc(Cl)s1 (centres undefined) was read as VDR inhibitor 0.2%.
For NC(=O)COC(=O)c1ccc(-c2ccccc2)cc1 the results were VDR inhibitor -3.7%.
Screening N#CCSc1nnc(COc2cccc3ccccc23)n1-c1cccc(Cl)c1 returned VDR inhibitor 2.2%.
`C/C(N)=C(/C#N)C(=O)CSc1n[nH]c(-c2ccccc2Br)n1` gave VDR inhibitor 12.4%&-3.6%.
For CN(CCc1ccccc1)C1CCCN(C(=O)Cn2cccn2)C1 (centres undefined) the results were VDR inhibitor -12.2%.
COc1cc(C)ccc1S(=O)(=O)n1nc(C)cc1C was read as VDR inhibitor 11.8%.
For CC(C)(C)c1ccc(S(=O)(=O)N2CCN(C3CCCC3)CC2)cc1 the results were VDR inhibitor 13.1%.
CCOc1ccc(C(=O)C[n+]2cccc3cc(C)ccc32)cc1 was read as VDR inhibitor 12.6%.
Screening O=C(Nc1cccc(O)c1)c1cccc(C(=O)Nc2cccc(O)c2)c1 returned VDR inhibitor 11.8%.
COc1cccc2cc(-c3nc(Nc4cccc(C)c4C)sc3C)c(=O)oc12 was read as VDR inhibitor 14.3%.
Fc1ccccc1OCCCCn1cncn1 was read as VDR inhibitor -4.3%.
CN(C(=O)C(Cl)Cl)C1CC2C=CC1C2 (centres undefined) was read as VDR inhibitor 6.0%.
`COc1ccc(OC)c(NC(=O)CN2C(=O)CC(C)Sc3ccccc32)c1` (centres undefined) gave VDR inhibitor -14.0%.
COCCn1c(SCC(=O)NC2CCCC2)nc2c(c1=O)SCC2 was read as VDR inhibitor -4.1%.
For O=C(CSc1nnc(-c2cccc(Cl)c2)o1)Nc1ccc2c(c1)OCCO2 the results were VDR inhibitor 3.0%.
Screening Cc1noc2ncnc(Oc3cc(Cl)ccc3Cl)c12 returned VDR inhibitor 1.0%.
`CCOC(=O)N1CCC(NC(=O)C2CCC(CNS(=O)(=O)c3ccc(OC)cc3)CC2)CC1` (centres undefined) gave VDR inhibitor 1.8%.
`COC(=O)c1c(NC(=O)Cc2coc3cc(C)cc(C)c23)sc2c1CCC2` gave VDR inhibitor 16.8%.
For O=C(CN1C(=O)CSc2ccc(S(=O)(=O)N3CCCC3)cc21)NCc1ccc(F)cc1Cl the results were VDR inhibitor -5.7%.
`O=C(O)c1ccc(CSc2nc3ccc(N4C(=O)C5C6C=CC(C6)C5C4=O)cc3s2)cc1` (centres undefined) gave VDR inhibitor 3.3%.
Screening Cc1cc(CSCc2ccc(Cl)cc2)no1 returned VDR inhibitor 23.6%.
`Cc1c(C(=O)NCC2COc3ccccc3O2)oc2ccc(S(=O)(=O)N(C)C3CCCCC3)cc12` (centres undefined) gave VDR inhibitor -5.8%.
Screening CCN(CC(=O)Nc1ccccc1C(F)(F)F)C(=O)CCc1ccccc1 returned VDR inhibitor -15.3%.
`O=C(CNC(=O)c1ccc(S(=O)(=O)N2CCCC2)cc1)N/N=C/c1ccco1` gave VDR inhibitor 4.8%.
`O=C(Nc1ccc([N+](=O)[O-])cc1)Nc1ccc2[nH]c(=O)[nH]c2c1` gave VDR inhibitor -1.1%.
`Cc1cccc(NC(=O)c2oc3ccc(S(=O)(=O)N(C)C4CCCCC4)cc3c2C)c1C` gave VDR inhibitor -11.8%.
`COc1ccc(C(CNC(=O)CCNC(=O)c2ccc(Br)cc2)N2CCOCC2)cc1` (centres undefined) gave VDR inhibitor -19.4%.
COc1cc(C)c(CN2CCN(CC(=O)Nc3ccccc3C(=O)NC3CC3)CC2)cc1OC was read as VDR inhibitor 1.9%.
For COCCn1ccc(O)c(Cc2ccccc2)c1=O the results were VDR inhibitor -21.4%.
`COc1ccc2c(CC(=O)NNC(=O)c3ccc(C)cc3)coc2c1` gave VDR inhibitor 4.9%.

In the list so far, 6 have bromine.
For CC1CCN(CCCOc2ccc(Br)cc2Cl)CC1 the results were VDR inhibitor -5.8%.
O=c1cc(Nc2cccc(Br)c2)[nH]c(=O)[nH]1 was read as VDR inhibitor 15.3%.
For CCCN(CCO)Cc1cccc(Br)c1 the results were VDR inhibitor -3.9%.
For Nc1cc(-c2ccc(Br)cc2)nn1S(=O)(=O)c1ccccc1 the results were VDR inhibitor -6.7%.
`C/C(N)=C(/C#N)C(=O)CSc1n[nH]c(-c2ccccc2Br)n1` gave VDR inhibitor 12.4%&-3.6%.
`COc1ccc(C(CNC(=O)CCNC(=O)c2ccc(Br)cc2)N2CCOCC2)cc1` (centres undefined) gave VDR inhibitor -19.4%.

This is a subset. The share of hits here may be higher or lower than overall.
